RVFV N-RNA FP: blocks Rift Valley Fever Virus nucleoprotein binding to RNA; P21700; % bound, % (concentration not given with the values); actives 0.1% (n = 20,000); RVFV N-RNA binding, fluorescence polarization; stronger effect = lower value; AID 651828;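 active = between 0 and 58% in either replicate with normal brightness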;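 also: 100 nL library stock added to about 12 µL; 100% = protein and probe without compound and 0% = probe alone; numbers are from one replicate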
Target sequence (P21700 whole entry, looked up): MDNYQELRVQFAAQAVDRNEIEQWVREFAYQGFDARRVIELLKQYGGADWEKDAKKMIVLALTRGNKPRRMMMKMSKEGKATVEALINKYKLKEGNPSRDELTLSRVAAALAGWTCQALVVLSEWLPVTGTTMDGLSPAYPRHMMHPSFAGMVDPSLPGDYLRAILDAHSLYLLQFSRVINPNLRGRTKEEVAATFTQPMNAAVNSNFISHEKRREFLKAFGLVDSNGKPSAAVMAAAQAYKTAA
Numbers without * were called inactive; & = joins results of further samples.

SMILES | RVFV N-RNA FP
CN(C)c1ccc(/C=C2\N=C(C(C)(C)C)OC2=O)cc1 | 96
O=C1CCCCC1c1nccc2ccccc12 (stereo not given) | 96
Cc1ccc(S(=O)(=O)NNc2ncnc3c(C)csc23)cc1 | 100
NC(=O)CS(=O)C(c1ccccc1)c1ccccc1 (stereo not given) | 97&98
CCOC(=O)c1sc(SC)c(C#N)c1-c1cccs1 | 94
COC(=O)c1cc(OC)c(OC)cc1NC(=O)c1ccc(-c2ccccc2F)o1 | 107
O=C(CCN1C(=O)c2ccccc2C1=O)Nc1nncs1 | 92
Cc1ccc(N2CC(=O)N(/N=C/c3ccc4c(c3)OCO4)CC2=O)cc1 | 98
CC(C)NC(=O)N(Cc1cccnc1)Cc1cccs1 | 100
CC1(C)C/C(=N/NC(N)=S)c2ccoc2C1 | 95
CCN(CC)C(=O)c1cccc(-c2nnc(-c3ccccc3)o2)c1 | 98
C/C=C(\C(=O)O)c1ccccc1 | 92
[O-][n+]1onc2c1CCc1c-2nc(-c2ccccc2)n1O | 98
CCc1ccc(S(=O)(=O)NCc2csc(-c3cccnc3)n2)s1 | 95
CC(C)Sc1nc2c(c(=O)[nH]1)C(c1cccs1)C1=C(CC(C)(C)CC1=O)N2 (stereo not given) | 97
FC(F)(F)c1cccc(N2CCN(Cc3cccs3)CC2)c1 | 91
COC(=O)C1=C(C)NC(C)=C(C(=O)OCC(C)C)C1c1ccccc1[N+](=O)[O-] (stereo not given) | 102&98
Oc1ccc(/C=C/c2ccc(/C=C/c3ccc(O)cc3)c(Br)c2)cc1 | 96
O=C(/C=C/c1cccs1)NCC1CCN(C(=O)/C=C/c2cccs2)CC1 | 90
CC(=O)NC1=NC(=O)/C(=C/c2ccccc2)S1 | 91
N#COc1ccc(Oc2ccc(OC#N)cc2)cc1 | 90
CCOC(=O)/C(C#N)=C/c1cn(Cc2ccccc2)c2ccccc12 | 108
Cn1c(NNC(=O)c2ccccc2)cc(=O)n(C)c1=O | 94
Cc1ccccc1NC(=O)COc1coc(CN2CCN(Cc3ccccc3)CC2)cc1=O | 93
O=C(O)c1cc(C(=O)O)n(Cc2ccccc2Cl)n1 | 94
COC(=O)C1C(=O)C(C(=O)c2ccccc2)C(=O)CC1(C)C (stereo not given) | 101
Cc1cc(=S)cc(C)n1C | 99
CC(C)NC(=O)CSc1nnc(-c2cccnc2)o1 | 106
O=C(NC(=O)C(F)(F)F)NC1CCCC1 | 91
C=CCOC(=O)Nc1ccc(C(O)(C(=O)OCC)C(F)(F)F)cc1C (stereo not given) | 105
CCOC(=O)COc1ccc(S(=O)(=O)N2CCN(Cc3ccc4c(c3)OCO4)CC2)cc1 | 92
CN1C(=O)c2ccc(NC(=S)NC(=O)C(C)(C)C)cc2C1=O | 94
COc1ccc(OC)c(S(=O)(=O)NNC(=S)Nc2ccc3c(c2)OCO3)c1 | 93
CN1CCC(N(C)C(=S)Nc2ccccc2)CC1 | 96
COC(=O)C1CCN(C(=O)CCOc2ccc(OC)cc2)CC1 | 94
S=C(NCc1ccco1)NCC1CCCO1 (stereo not given) | 89
O=C(NC(C(=O)O)c1ccccc1)c1cccs1 (stereo not given) | 100
O=S(=O)(NCc1ccc(Cl)cc1Cl)c1ccc(N2CCOCC2)nc1 | 86
CC1=NN(c2ccccc2)C(=O)/C1=C/c1c(C)[nH]n(-c2ccccc2)c1=O | 104
Clc1ccc(N=c2scc(-c3cccs3)n2CCCN2CCOCC2)cc1 | 102
O=C(NN=C(c1ccccc1)c1ccccc1)c1ccco1 | 103
NCCSc1nnc2c(n1)[nH]c1ccccc12 | 92
O=S1(=O)CCC(NC(=S)Nc2ccccn2)C1 (stereo not given) | 89
CC(C)C(=O)Nc1ccccc1C(=O)O | 92
CCOC(=O)OC(C)OC1=C(C(=O)Nc2ccccn2)N(C)S(=O)(=O)c2ccccc21 (stereo not given) | 92&94

An excerpt of these results, in markdown.
| compound | RVFV N-RNA FP |
| --- | --- |
| COC(=O)C1CCN(C(=O)CCOc2ccc(OC)cc2)CC1 | 94 |
| S=C(NCc1ccco1)NCC1CCCO1 (stereo not given) | 89 |
| O=C(NC(C(=O)O)c1ccccc1)c1cccs1 (stereo not given) | 100 |
| O=S(=O)(NCc1ccc(Cl)cc1Cl)c1ccc(N2CCOCC2)nc1 | 86 |
| CC1=NN(c2ccccc2)C(=O)/C1=C/c1c(C)[nH]n(-c2ccccc2)c1=O | 104 |
| Clc1ccc(N=c2scc(-c3cccs3)n2CCCN2CCOCC2)cc1 | 102 |

Remaining list, next part.
SMILES | RVFV N-RNA FP
COc1ccc(N2CCN(C(=O)c3ccccc3I)CC2)cc1 | 98
CC(C)CNc1nc(SCC(N)=O)nc(N2CCOCC2)n1 | 95
COC(=O)CCCc1nc2ccccc2s1 | 93
CCOc1cc(/C=C2/SC(=S)N(C(CC)C(=O)O)C2=O)ccc1O (stereo not given) | 97
CCCc1c(C(=O)OCC)sc(N)c1C#N | 96
Nn1c(SCc2ccccc2)nnc1-c1ccco1 | 107
C=CCOC(c1ccccc1)c1nc2ccccc2n1CC=C (stereo not given) | 100
CNC(=S)Nc1cc(Cl)ccc1OC | 88
O=c1cc(-c2ccccc2)nc2cc(-c3ccccc3)[nH]n12 | 97
CCOC(=O)/C(C#N)=C/Nc1cc(C)no1 | 113
Cc1oc(-c2ccc(Cl)cc2)cc1C(=O)O/N=C(\N)Cc1nc2cccnc2n1C1CC1 | 98
COc1ccc(-c2nc3ccccc3o2)cc1 | 100
COc1ccc(CNC(=O)c2cnc(OC)cc2C(F)(F)F)c(OC)c1 | 101
C=CCNC(=O)CSc1nc(=O)n2cc(C)ccc2n1 | 95
Oc1c(C(c2ccco2)N2CCOCC2)sc2ncnn12 (stereo not given) | 80

Continued, overlapping the part above by 4 compounds.
SMILES | RVFV N-RNA FP
COc1ccc(-c2nc3ccccc3o2)cc1 | 100
COc1ccc(CNC(=O)c2cnc(OC)cc2C(F)(F)F)c(OC)c1 | 101
C=CCNC(=O)CSc1nc(=O)n2cc(C)ccc2n1 | 95
Oc1c(C(c2ccco2)N2CCOCC2)sc2ncnn12 (stereo not given) | 80
Cc1cc(C)c(S(=O)(=O)NCC(=O)NC2CC2)c(C)c1 | 92
Nc1nc(-c2ccccc2)cc(-c2ccccc2)n1 | 106
CC(=O)OC1=CC=CNC1=C(C#N)C#N | 95
COc1cc(NC(=S)N(C)CCC#N)c(OC)cc1Cl | 107
CCOC(=O)C1=C[C@@H](OC(CC)CC)[C@H](NC(C)=O)[C@@H](N)C1 | 100
COc1ccc2cc(OC)ccc2c1 | 95
CCN1C(=O)NC(c2ccc(Cl)cc2)C(C(=O)OC)=C1C (stereo not given) | 100
N#Cc1c(NC(=O)CCn2cnc3ccccc3c2=O)oc(-c2ccccc2)c1-c1ccccc1 | 91
CS/C(N)=N\N=C(/C)c1cc2ccccc2o1 | 87
CSc1ccc(C(=O)Nc2sccc2C#N)cc1 | 91
Nc1nc(N)nc(NC2CC2)n1 | 100
Cc1ccccc1NC(=O)c1sc2nc[nH]c(=O)c2c1C | 97
CSc1nc(C)nc(N/C=C2\C(=O)c3ccccc3N(C)S2(=O)=O)n1 | 106
O=C(CSc1ccccc1)Nc1nnc(-c2ccccc2)o1 | 90
Cc1ccc(F)cc1S(=O)(=O)NC1CCCCNC1=O (stereo not given) | 100
CC1CN(C(=O)c2cc3c(=O)n4ccccc4nc3s2)CC(C)O1 (stereo not given) | 105
O=C(COc1coc(CN2CCc3ccccc32)cc1=O)Nc1ccc2c(c1)OCCO2 | 90
c1ccc(CSc2nnc(Cc3ccccc3)o2)cc1 | 80
O=S(=O)(c1ccccc1)N1CCN(S(=O)(=O)c2ccc3ccccc3c2)CC1 | 90
Cc1sc(NC(=O)C2CC2)c(C#N)c1C | 89
O=C1c2ccc(-c3nc4ccccc4c(=O)o3)cc2C(=O)N1c1ccc2c(c1)OCO2 | 90
CCOc1ccc2[nH]c(=S)sc2c1 | 99
O=C(O)c1nn(Cc2ccc(Cl)cc2Cl)c2ccccc12 | 98
Cc1ccc2occ(CN(C)CCc3ccccn3)c(=O)c2c1 | 111
CC(C)ON1C(=O)C2C3C=CC(O3)C2C1=O (stereo not given) | 94
CN(C)c1ccc(CN2CCCCCC2)cc1 | 85
C=CCSc1nnc(-c2cc(C(C)(C)C)nn2Cc2ccc(F)cc2)n1C | 97
C[N+]1(CCCCC[N+]2(C)CCCC2)CCCC1 | 98
O=C(C1CC1)N(c1ccccc1)C1C=CS(=O)(=O)C1 (stereo not given) | 96
O=C(COc1ccccc1)N1CCN(c2cccc(Cl)c2)CC1 | 90

4 structures already listed, sorted by heavy-atom count, smallest number first:
SMILES | RVFV N-RNA FP
CC(C)ON1C(=O)C2C3C=CC(O3)C2C1=O (stereo not given) | 94
O=C(O)c1nn(Cc2ccc(Cl)cc2Cl)c2ccccc12 | 98
Cc1ccc2occ(CN(C)CCc3ccccn3)c(=O)c2c1 | 111
CC1CN(C(=O)c2cc3c(=O)n4ccccc4nc3s2)CC(C)O1 (stereo not given) | 105

Following part
SMILES | RVFV N-RNA FP
CCOC(=O)C1CCN(C(=S)c2ccccc2)CC1 | 88
C=CCNC1CC(=O)N(c2ccccc2)C1=O (stereo not given) | 94
Brc1ccc2ncnc(N3CCCC3)c2c1 | 91
Cn1c(CC(=O)Nc2ccccc2)nnc1SCCOc1ccccc1 | 94
O=C(Nc1ccccc1)N(Cc1nc(-c2ccccc2)no1)C1CCCCC1 | 97
CSc1cccc(NC(=S)NCCCO)c1 | 94
CCOC(=O)C1CCN(C(=O)c2cc(C(C)(C)C)nn2Cc2ccccc2)CC1 | 86
Cc1[nH]c2ccccc2c1SCC(=O)Nc1nccs1 | 108
Cn1nc(-c2ccccc2)cc1NS(=O)(=O)c1ccc(C#N)cc1 | 96
O=C1c2ccccc2-c2c1cccc2C(=O)N(CCO)CCO | 111
CC1=CC=CC(=C(C2C(=O)N(C)C(=O)N(C)C2=O)C2C(=O)N(C)C(=O)N(C)C2=O)C1=O | 84
COc1ccc(OCC(O)CNC(=O)Nc2ccc(OC(F)(F)F)cc2)cc1 (stereo not given) | 92
CC(=O)Nc1ccc(N/C(C)=C/C(=O)c2cccnc2)cc1 | 97
CCCCC(=O)NCc1ccccc1Cl | 97
Cc1cc(OC(=O)N2CCOCC2)cc(C)c1Cl | 94
O=C(NC1CCCC1)C(F)(F)C(F)(F)C(=O)NC1CCCC1 | 113
Oc1ccc(C2N=C(c3ccccc3)NC(c3ccccc3)=N2)cc1 | 103
O=C(CSc1nc2ccccc2[nH]1)Nc1ccc(C(=O)O)cc1 | 98
O=C1CC(Cc2ccccc2)C(=O)N1Cc1ccc2c(c1)OCO2 (stereo not given) | 95
Cc1cc(CNC(=S)Nc2ccc(F)cc2F)nn1C | 86
CC(C)CNC(=O)c1cccc2ccccc12 | 94
COc1ccccc1N/C=C(\C#N)c1nc2ccccc2[nH]1 | 101
CCOC(=O)C1CCCN(C(=O)CC)C1 (stereo not given) | 89
CSC1=C(C#N)C(=O)NC(c2c(Cl)cccc2Cl)S1 (stereo not given) | 100
C=CCOC1(c2ccccc2)OC(=O)c2ccccc21 (stereo not given) | 86
COc1cc(/C=C/C(=O)N2CCCCCC2)cc(OC)c1OC | 103
COc1ccc(/C=N/OCC(=O)N2CCOCC2)cc1 | 93
Cc1ccc2[nH]c3c(c2c1)CCCC3C#N (stereo not given) | 83
CCOCC(=O)Nc1nnc(C2CCCCC2)s1 | 98
O=C(c1ccccc1)N1CCN(c2ccc(N3CCOCC3)nn2)CC1 | 94
O=C(N=c1scc(-c2ccccc2)n1-c1ccccc1)c1ccco1 | 90
CCN(C(=O)Cn1nnc(-c2ccccc2)n1)c1ccccc1 | 95
CCOc1ccc2ccccc2c1C(=O)N[C@@H]1C(=O)N2[C@@H]1SC(C)(C)[C@@H]2C(=O)O | 100
CC(=O)Nc1ccc(S(=O)(=O)N2CCN=C2c2ccccc2)cc1 | 102
Cc1ccc(-n2c(C)cc(/C=C(\C#N)C(=O)NCC3CCCO3)c2C)cc1 (stereo not given) | 92
O=S(=O)(NCc1ccccc1)N1CCCCC1 | 111
Cc1ccc(SC(C)C(=O)Nc2ccc3c(c2)OCO3)cc1 (stereo not given) | 100
Nc1nc(OCc2ccccc2)c2[nH]cnc2n1 | 91
CCN(C(=O)c1cc2cc(OC)ccc2oc1=O)c1cccc(C)c1 | 94
CN1CCN(C(=S)Nc2ccc(S(N)(=O)=O)cc2)CC1 | 101
Cc1cc(NC(=S)N(C)C)ccc1Br | 93
COC(=O)c1c(NC(=S)n2cc(C)cn2)sc2c1CCC(C)C2 (stereo not given) | 86
CSc1ncc2c(c1C#N)CCCC2 | 94
COc1ccc2oc(=O)c(-c3cc4c(c(C)n3)c(=O)oc3ccc(OC)cc34)cc2c1 | 96
CC(Cn1cnc2ccccc21)C(=O)N=Nc1c(O)[nH]c2ccccc12 (stereo not given) | 96
CCOc1ccccc1C=C(C#N)C#N | 113
Oc1ccccc1C=Nc1ccc(OC(F)(F)C(F)F)cc1 | 91
O=c1ccc(-c2ccc(Br)s2)n[nH]1 | 95
CCOC(=O)CNc1nc2ccccc2n2cnnc12 | 95
CCC(=O)Nc1cccc(-c2ccc(N3CCC(C)CC3)nn2)c1 | 88
O=S(=O)(NC1CCCCC1NS(=O)(=O)c1ccc(F)cc1)c1ccc(F)cc1 (stereo not given) | 100
O=C(CCc1c[nH]c2ccccc12)N/N=C/c1ccccc1O | 92
COc1ccc(S(=O)(=O)n2ccnc2)cc1C | 102
Cc1ccc(/C=C2/SC(=S)N(c3ccc(C(=O)O)c(O)c3)C2=O)o1 | 97
CC(C)(C)N1C(=O)NC(=O)/C(=C/c2ccccc2Cl)C1=O | 87
O=C(c1ccccc1)c1cnc(Nc2nc3ccccc3o2)nc1-c1ccccc1 | 108
CCOC(=O)c1ccc(NC(=O)NC(C)c2ccc3c(c2)OCO3)cc1 (stereo not given) | 99
S=c1[nH]nc(CSCCOc2ccccc2)o1 | 97
COc1ccc(C(=O)NCc2ccccc2)cc1OC | 96
N/C(=C\C(=O)c1cccs1)C(F)(F)F | 97

(list continues)
SMILES | RVFV N-RNA FP
N#CC1(c2ccc(Cl)cc2)CCCCC1 | 95
O=C(NCCn1cccc1)c1cccc2ccccc12 | 98
Cc1ccccc1NC(=O)NC(C)(C)CC(C)(C)C | 93
Cc1c(/C=C(/C#N)C(=O)Nc2ccc(Cl)cc2)c2ccccc2n1C | 83
CC1(C)C2=CC3(C)N(CC(=O)N2c2ccccc21)c1ccccc1C3(C)C (stereo not given) | 113

Not all compounds are listed (hit frequency here may not be typical).
